Rce1 inhib – yeast Rce1p protease inhibitors, primary screen, biochemical, fluorescence, cell-free homogeneous | 290,000 tested, 0.27% active | calls only | CAAX prenyl protease 2 (Saccharomyces cerevisiae (strain ATCC 204508 / S288c)), Q03530 | AID 2563, 2010 | yeast membranes, quenched prenylated peptide cleavage fluorescence;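 active = fall in fluorescence gain of 50% or more versus controls, with final raw signal at or below 3038400; inconclusive = same 50% fall but final raw signal above 3038400; inactive = fall in fluorescence gain under 50%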;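 also: plate controls were neutral control wells for no effect and wells lacking membranes for full effect; tested at 10 µM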
Target sequence (Q03530 whole entry, looked up): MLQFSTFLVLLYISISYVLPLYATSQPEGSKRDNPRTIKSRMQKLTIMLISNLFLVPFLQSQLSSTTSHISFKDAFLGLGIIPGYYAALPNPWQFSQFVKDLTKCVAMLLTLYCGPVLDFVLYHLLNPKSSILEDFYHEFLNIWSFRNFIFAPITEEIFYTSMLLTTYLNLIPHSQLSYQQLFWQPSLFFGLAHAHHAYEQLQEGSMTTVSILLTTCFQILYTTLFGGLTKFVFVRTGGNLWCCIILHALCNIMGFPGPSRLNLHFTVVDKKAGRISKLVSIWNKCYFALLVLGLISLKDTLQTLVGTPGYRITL
UUG fidelity – modulators of yeast start codon fidelity, primary screen, whole organism, S. cerevisiae, single point, plate reader | S. cerevisiae UUG-firefly luciferase reporter, luminescence/redox ratio | activity score, % at 18.7 µM | 350,000 tested, 0.13% active | AID 602363, 2012;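 active = replicate mean at a twofold rise or more, about +100% in these data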;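 also: firefly luciferase made from a UUG start codon reports start codon fidelity; reporter light over untreated wells divided by growth signal over untreated wells; some hits fall short of that in this replicate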
CSC inhib – cancer stem cell viability inhibitors, primary screen, luminescence | cancer stem cell-like cells viability | inhibition, % at 7.5 µM | 300,000 tested, 1.1% active | AID 2717, 2010;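 active = mean at 75% or more and at least half the replicates too; inconclusive = mean and replicates disagree; tested in HMLE shEcad cells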;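 also: 0% = median of negative and 100% = median of positive control wells; the first replicate is given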
Env fusion inh – inhibitors of HIV-1 Env-driven cell-cell fusion, primary screen, HeLa-JRFL effector, CEM21 target cells, luciferase. inhibition, % at 12.3 µM. 360,000 tested, 1.1% active;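 active = mean replicate inhibition score of at least 50 and every replicate individually at or above 50; inconclusive = only one of the two criteria met; inactive = mean below 50 and not all replicates reaching 50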;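 also: 0% = plate neutral controls and 100% = maraviroc near 300 nM; one replicate is shown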
eIF4H FP inh – human eIF4H binding inhibitors, primary screen, translation initiation inhibitor project, biochemical, uHTS, fluorescence polarization; Eukaryotic translation initiation factor 4H (Homo sapiens), Q15056; eIF4H fluorescence polarization binding assay; inhibition, % at 35 µM; 290,000 tested, 0.94% active; AID 2012, 2009;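 active = 50% or more with normal probe brightness, or confirmed in later tests; inconclusive = above 50% with abnormal brightness, or retests that disagree; inactive = below 50% or failed in later tests; about a fifth of its hits are not listed in these tables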;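 also: calls also rest on retests at 20 µM and on dose response follow-up; 0% = protein and probe with vehicle and 100% = probe without protein; strong numbers were not always called active; many hits fall short of the cut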
PABP FP inh – PABP poly(A) RNA binding inhibitors, primary screen, biochemical, fluorescence polarization, uHTS. AID 2014, 2009. inhibition, % at 35 µM. Polyadenylate-binding protein 1 (Homo sapiens), P11940. 290,000 tested, 1% active;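 active = 50% or more with normal probe brightness, or confirmed in later tests; inconclusive = above 50% with abnormal brightness, or retests that disagree; inactive = below 50% or failed in later tests; about a fifth of its hits are not listed in these tables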;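 also: calls also rest on retests at 20 µM and on dose response follow-up; controls were probe without protein and protein plus probe with vehicle; some compounds called inactive have numbers as strong as hits; many hits fall short of the cut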
MT1-MMP act inh – blockers of MT1-MMP proenzyme processing, primary screen, HT1080 RFP-PRO-GFP cells, GFP/RFP fluorescence. Matrix metalloproteinase-14 (Homo sapiens), P50281. GFP/RFP ratio fluorescence, overnight; percent of plate control window, DMSO zero. GFP/RFP ratio change, % at 20 µM. 360,000 tested, 0.061% active;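 active = GFP/RFP ratio change of at least 30% with cell ATP level not reduced by more than half and red fluorescence within 50% of control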; also: strong numbers were not always called active
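Assay system – RFP-PRO-GFP reporter HT1080 cells · Compound dosing – single dose of 20 µM compound, 1% DMSO final · Incubation – overnight compound exposure at 37 °C · Measure – GFP/RFP fluorescence ratio · Benchmarks – DMSO wells and RFP-L50D-GFP cells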
eIF4H FP inh retest – recorded beside eIF4H FP inh, whose call it bears; inhibition, %; compound at 20 µM; confirmation average;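 mean of two retest wells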
PABP FP inh retest – also measured in PABP FP inh; calls as there; inhibition, %; compound at 20 µM; confirmation repeats;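 mean of two retest wells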
MT1-MMP act inh RFP – also measured in MT1-MMP act inh; calls as there; RFP signal change, %; measured here: RFP expression control read;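 0 = vehicle wells; hits needed this value within 50% of zero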
* = called active by the depositor; i = inactive; ? = inconclusive; / = not tested or not shown.

SMILES	Rce1 inhib	UUG fidelity	CSC inhib	Env fusion inh	eIF4H FP inh	PABP FP inh	MT1-MMP act inh	MT1-MMP act inh RFP	others
CCN(CC(=O)Nc1cc(Cl)ccc1C)C(=O)C1CC(=O)N(Cc2ccccc2)C1 (stereo not given)	i	-3	4	-4	/	/	0	3
CCCCCN(C(=O)CCC(=O)OCCOc1ccc(OC)cc1)c1c(N)n(CCCC)c(=O)[nH]c1=O	i	/	-14	/	/	/	-6	-5
Cc1cc(N=Nc2ccc(Cl)cc2)cc(CN2CCCC2)c1O	i	-9	40	-1	-5	1	4	1
O=C(c1ccc(-c2ccccc2)c(F)c1)C1CCCN(CCCn2cccn2)C1 (stereo not given)	i	-3	48	21	36	22	1	-2
Cc1ccnc(NS(=O)(=O)c2ccc(Oc3ccccc3)cc2)c1	i	-20	-11	34	2	-1	4	-7
COc1ccc(NC(=O)COc2ccccc2C#N)c(S(=O)(=O)N2CCCCC2)c1	i	/	2	/	-10	-7	5	-6
CC(Cc1cccnc1)NC(=O)c1cc(COc2ccc(F)cc2F)on1 (stereo not given)	i	-17	-10	/	20	26	0	-4
O=C(/C=C\c1ccccc1)Oc1cccc2cccnc12	i	/	8	-4	71	19	-10	-21	eIF4H FP inh retest=34;PABP FP inh retest=37
N#CCCN(Cc1ccccc1)C(=O)c1cccs1	i	-5	-13	-4	4	0	0	0
O=C(Nc1ccccc1)C1=C(c2ccccc2)S(=O)(=O)CCS1(=O)=O	i	/	/	-2	3	6	-11	-14
CCc1nc2c(cnn2-c2ccc(F)cc2)c(=O)n1-c1ccc(N2CCC(C)CC2)cc1	i	-37	56	41	-13	-13	6	-29
O=C(CC(=O)Nc1ccc(F)cc1F)Nc1ccc(F)cc1F	i	-14	0	-19	-10	-4	2	0
COC(=O)C1=C[C@@H](C(=O)OC)C2C3=C(C(=O)C24CCCCC4)[C@H](C)n2c(=O)n(-c4ccccc4)c(=O)n2[C@@H]3C1 (stereo not given in full)	i	4	-6	21	/	/	0	1
COc1ccc(C(=O)N2CCN(c3cnn(-c4ccccc4)c(=O)c3Cl)CC2)cc1	i	-1	4	12	-6	4	4	-2
CCOC(=O)C1CCCN(C(=O)COc2ccc(S(=O)(=O)N(CC)c3ccccc3)cc2)C1 (stereo not given)	i	/	3	-6	0	-12	2	1
COc1ccc(OC)c(S(=O)(=O)N2CCC(NC(=O)c3ccccc3)CC2)c1	i	/	-14	5	-5	-1	0	-1
COc1cccc(OCc2cc(C(=O)N3CCN(C)C(c4ccccc4)C3)no2)c1 (stereo not given)	i	-20	4	/	/	/	1	-4
COc1ccccc1CN1CC(C(=O)NCCc2ccc(Cl)cc2)CC1=O (stereo not given)	i	-3	-5	-3	6	-3	-1	1
Cc1cccc(NC(=O)c2ccc3c(c2)CCN3S(C)(=O)=O)c1	i	1	-4	-19	-10	-7	10	-7
CCNC(=O)/C(C#N)=C/c1c(N2CCN(c3ccccc3)CC2)nc2c(C)cccn2c1=O	i	-12	-7	31	9	20	-4	0
C/C=C/c1ccc(OCC(=O)N(CCOC)c2c(N)n(CCCC)c(=O)[nH]c2=O)c(OC)c1	i	3	-3	1	/	/	2	3
Cc1ccc(CN2C(=O)c3ccccc3NC2c2ccccn2)cc1 (stereo not given)	i	/	-13	6	10	-1	1	1
COc1cc(/C=C/C(=O)O)ccc1OCc1ccccc1C#N	i	-8	-19	14	-6	-8	3	8
Cc1ccc2nc(-c3ccccc3)cc(C(=O)N3CCN(c4ccccc4O)CC3)c2c1	i	-5	0	-8	/	/	-3	-3
O=C(CS(=O)c1ccc(C(F)(F)F)cc1[N+](=O)[O-])Oc1ccc(Cl)cc1 (stereo not given)	i	-21	4	-53	2	2	0	-1
Cc1nc(NC(=O)c2ccccc2)sc1-c1cc(C(=O)N2CCOCC2)nn1Cc1ccccc1	/	1	/	-3	/	/	0	-6
COc1ccccc1CNC(=O)C1CCN(S(=O)(=O)c2cccc3cccnc23)CC1	i	-15	-17	-8	-1	-7	-7	-3
O=C1CCC(=O)N1Cc1c(Cl)cccc1Cl	i	-21	1	3	-9	0	2	4
CS(=O)(=O)N(CC(=O)NCc1ccccc1)C1CCCCC1	i	-17	-7	/	-6	-2	-3	1
CN(C)C(=O)C1C2NC(=S)N(c3cccc(Cl)c3)C1(C)Oc1ccc(Cl)cc12 (stereo not given)	i	-22	6	12	-9	-7	-2	-6
COC(=O)c1ccc(Nc2c([N+](=O)[O-])ccc3nonc23)cc1	i	-10	-7	7	23	-7	2	-1
c1ccc(CNCc2ccco2)cc1	i	-17	-10	-8	0	7	-1	1
Cc1ccc(NC(=O)CSc2ncn(-c3ccccc3)n2)cc1C	i	-7	-1	-29	2	0	-2	3
CCc1cc(C(=O)N2CCN(C(=O)c3ccccc3)CC2)sc1C	/	8	/	-16	/	/	-1	-2
CN1/C(=C\C(=O)COC(=O)CNC(=O)c2ccccc2F)C(C)(C)c2ccccc21	i	/	8	-14	-1	5	5	9
C#CCOCCOCCOCCNc1nc(N2CCN(C(=O)[C@H]([C@@H](C)CC)n3cc(CCCN=C(N)N)nn3)CC2)nc(N2CCN(C(=O)[C@H](Cc3ccc(O)cc3)n3cc(CCO)nn3)CC2)n1	/	19	-15	-1	6	1	4	11
Cc1cccc(NC(=S)N(CCCN2CCOCC2)Cc2ccco2)c1	i	-6	-15	8	9	-3	-1	-1
O=C1[C@@H]2C(c3cccnc3)=NO[C@@H]2C(=O)N1c1ccc(Cl)cc1Cl	/	/	-8	-1	-2	-3	-3	3
COC(=O)C(CCCCNC(=O)c1ccc([N+](=O)[O-])cc1)NC(=O)c1ccc([N+](=O)[O-])cc1 (stereo not given)	i	/	-20	11	3	0	5	-3
O=C(CC1CC2CCC1C2)Nc1nc(-c2ccccn2)cs1 (stereo not given)	/	/	-1	-16	16	4	-2	-4
O=C(NCc1ccccc1)C1=C[C@@H](c2ccc(C(F)(F)F)cc2)C[C@@H](OCCCCO)O1	i	-5	0	-18	/	/	2	2
CCN(CC)CCCN(Cc1cc2cc3c(cc2[nH]c1=O)OCO3)C(=S)NCCOC	i	-22	0	-1	2	-5	-4	-1
CS(=O)(=O)c1ccc(Cl)c(NC(=O)C2CC(=O)N(Cc3ccccc3)C2)c1 (stereo not given)	i	7	-3	-35	6	1	2	-2
CN1C2CCC1CC(N(CCc1ccccc1)C(=O)c1ccc(Cl)cc1)C2 (stereo not given)	i	-7	-17	-1	-4	2	-1	3
CC(C)CCNC(=O)NC(=O)CSc1nnc(COc2ccccc2Cl)o1	i	-21	3	13	3	-3	-1	3
CSc1nc2ccc(Cl)cc2[nH]1	i	-15	0	-27	-3	-2	2	0
Cc1cc(C)cc(NS(=O)(=O)c2cc(Br)cnc2N)c1	i	-19	16	-1	/	/	8	0
Cc1ccccc1NC(=O)CCS(=O)(=O)c1ccc(Br)cc1	i	-18	-7	-9	10	0	1	2
COc1ccc(N2CCN(C(=O)C(=O)c3cn(CC(=O)N4CCCCCC4)c4ccccc34)CC2)cc1	i	3	-21	-1	11	17	-2	-4
CC(O/N=C/c1ccccc1OC(F)F)C(=O)Nc1cccc(S(=O)(=O)N2CCOCC2)c1 (stereo not given)	i	/	-4	27	-6	-14	2	-1
CN(Cc1cccs1)C(=O)c1cc(S(=O)(=O)N2CCOCC2)ccc1N1CCCC1	/	0	-8	1	/	/	0	2
Cc1nn(C)c2ncc(C(N)=O)c(Oc3cccnc3)c12	/	/	-30	-4	-6	0	-3	0
Cc1cccc(C)c1Nc1nnc(SCC(=O)Nc2sccc2C#N)s1	i	/	-3	-1	37	0	-5	0
O=C(O)/C=C/c1ccc(S(=O)(=O)N2CCN(CCN3C(=O)C4C5C=CC(C5)C4C3=O)CC2)cc1 (stereo not given)	i	5	-8	-101	4	8	3	6
Cc1ccc(C)c(NC(=O)CN(C)C(=O)c2cccc(S(=O)(=O)N(C)C)c2)c1	i	15	5	2	-9	-8	6	-3
Cc1ccc(SCC(=O)Nc2cc(S(=O)(=O)N3CCCCC3)ccc2C)cc1	/	4	4	-116	/	/	5	-5
CC1CCCN(C(=S)SCC(=O)c2cc(Br)cc(Br)c2O)C1 (stereo not given)	i	/	28	-1	58	26	13	9	eIF4H FP inh retest=32;PABP FP inh retest=32
Cc1cc(C)n(CC(=O)c2cccc([N+](=O)[O-])c2)n1	i	-14	/	-4	-3	9	1	1
Cc1nc(SCC(=O)Nc2ccc3[nH]c(=O)[nH]c3c2)nc(C)c1C	/	-3	2	-41	/	/	2	0
CCCc1oc(C(=O)O)cc1CN	i	-9	-7	3	-7	7	1	5
Oc1ccc(Br)cc1-c1nc2cnccn2c1NC1CCCC1	/	-12	16	?	1	10	-18	-5
